# PGK inhibitor – T. brucei PGK inhibition; hit rate 0.043% among 380,000; AID 602233; Potency, µM (series often up to 57.5 µM), for inactives: top-dose activity change, negative = inhibition, usual class: inhibitors; P07378; PGK/GAPDH coupled, Kinase-Glo luminescence, 60 min; note: % is set by controls: 0 for no effect and ±100 for the full control effect; nearly all actives have a fitted effect of over 60% in size
#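 Recombinant glycosomal PGK reaction used 1,3-bisphosphoglycerate generated in-well by GAPDH (100nM final) in 100mM TEA pH 7.6, 5mM MgCl2, 0.01% Tween-20. After 60 minutes at room temperature, ATP was read by Kinase-Glo Plus luminescence end-point.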
# GLS inh – glutaminase GLS (human) inhibition | O94925 | GLS enzymatic activity, qHTS titration | Potency, µM (series often up to 45.5 µM), for the others: top-dose activity change, negative = inhibition, hits mostly inhibitors | hit rate 0.21% among 410,000 | AID 624170; note: % is set by controls: 0 for no effect and ±100 for the full control effect
# Target sequence (O94925 whole entry, looked up): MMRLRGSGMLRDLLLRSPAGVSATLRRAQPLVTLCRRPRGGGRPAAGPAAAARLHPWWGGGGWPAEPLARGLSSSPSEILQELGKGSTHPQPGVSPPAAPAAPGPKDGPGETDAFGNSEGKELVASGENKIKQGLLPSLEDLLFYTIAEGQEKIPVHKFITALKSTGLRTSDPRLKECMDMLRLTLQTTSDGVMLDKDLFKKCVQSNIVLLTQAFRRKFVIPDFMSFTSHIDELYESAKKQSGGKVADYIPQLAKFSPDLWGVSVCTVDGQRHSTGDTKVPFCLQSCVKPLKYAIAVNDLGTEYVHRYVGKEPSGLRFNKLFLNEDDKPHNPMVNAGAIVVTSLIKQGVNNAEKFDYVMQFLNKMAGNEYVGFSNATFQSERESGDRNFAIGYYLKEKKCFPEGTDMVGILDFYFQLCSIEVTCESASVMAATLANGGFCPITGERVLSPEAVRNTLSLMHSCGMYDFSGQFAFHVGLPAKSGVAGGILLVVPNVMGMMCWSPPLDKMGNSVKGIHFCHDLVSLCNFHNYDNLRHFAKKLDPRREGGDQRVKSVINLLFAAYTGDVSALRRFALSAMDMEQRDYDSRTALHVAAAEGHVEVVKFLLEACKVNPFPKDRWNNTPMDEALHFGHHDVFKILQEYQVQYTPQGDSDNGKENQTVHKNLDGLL
#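 hKGA in 45 mM KH2PO4 (pH 8.2), 0.02% Tween-20 with compound, then 1mM L-Glutamine (stock as added) plus glutamate oxidase/HRP/Amplex red coupling mix. Fluorescence read initially and after 30 min at RT; signal change reflects glutamate formation.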
# HP1b chromo inh – inhibitors of HP1-beta chromodomain binding to methylated histone tails; hit rate 0.56% among 390,000; Potency, µM (top dose mostly 114 µM), without a hit: at the top dose activity change, negative = inhibition, hits mostly inhibitors; AlphaScreen HP1-beta / biotin-H3K9me3 peptide binding; AID 540317; P83916; note: nearly all actives have a fitted effect of over 70% in size; inactives centre near 23
# Target sequence (P83916 whole entry, looked up): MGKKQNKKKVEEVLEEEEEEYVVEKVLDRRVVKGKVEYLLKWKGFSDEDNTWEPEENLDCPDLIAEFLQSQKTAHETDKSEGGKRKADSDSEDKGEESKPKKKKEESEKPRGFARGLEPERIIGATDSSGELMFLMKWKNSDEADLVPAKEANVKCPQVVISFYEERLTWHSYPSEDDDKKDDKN
#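 HP1-beta protein (50 nM final) preincubated 30 min at room temperature with biotinylated H3(1-18)K9me3 peptide (50 nM) in PBS pH 7.4, 0.01% Tween-20, then compound added for 30 min. AlphaScreen streptavidin donor/nickel chelate acceptor beads (10 ug/mL final), 30 min dark, luminescence read.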
# G9a block – blocks human histone lysine methyltransferase G9a; Q96KQ7; G9a H3K9 monomethylation, AlphaScreen, 2 h; Potency, µM (top dose mostly 102 µM), for the others: at the highest dose activity, negative = inhibition, hits mostly inhibitors; hit rate 8.8% among 350,000; note: % is set by controls: 0 for no effect and ±100 for the full control effect; nearly all actives have a fitted effect of over 75% in size
#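 AlphaScreen detection with an anti-monomethyl H3K9 antibody quantified product after a 2 h room-temperature reaction containing 500 nM biotinylated H3K9 peptide, 20 µM SAM and 20 nM enzyme, which had been preincubated 15 min with compound.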
# POLI inh – DNA polymerase iota (human) inhibition. hit rate 1% among 390,000. AID 588590. Potency, µM (doses to about 115 µM), inactives show at the highest dose activity, negative = inhibition, hits mostly inhibitors. Pol iota fluorescent replication assay, 10 min. Q9UNA4
#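 Pol iota at 10 nM preincubated 15 min with compounds at room temperature; reaction started with fluorescent substrate, 50 nM final. Fluorescence read kinetically at 0 and 10 min; buffer-only wells as negative control.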
# Pin1 inhibitor – human Pin1 inhibition; Pin1 FP peptide displacement, HiFluor488, 10 min; Potency, µM (top dose mostly 115 µM), without a hit: at the top dose activity, negative = inhibition, actives largely listed as inhibitors; hit rate 0.009% among 390,000; AID 504891; active = well fitted inhibition curve with a large enough effect in the polarisation, with a control signal flat, not every such curve was filed as active; inconclusive = small, poorly fitted or top-dose-only effect, or effect the other way, or a change in a side signal; inactive = no such curve, though single readings can be large or run the other way; the % refers to the polarisation; note: % is set by controls: 0 for no effect and ±100 for the full control effect
# BLM inh – inhibitors of human Bloom syndrome helicase BLM; P54132; recombinant BLM DNA unwinding, fluorescence dequenching; Potency, µM (series often up to 56.1 µM), for the others: at the top dose activity change, negative = inhibition, most hits filed as inhibitors; hit rate 0.2% among 350,000;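 note: plate controls were vehicle for no effect and no enzyme for full effect; nearly all actives have a fitted effect of over 35% in size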
# Numbers without * were called inactive; i = inactive; u = inconclusive; x = no result given; [ ] = another dose, or the depositor's remark. Unless noted, calls come from the whole dose curve; as a rule, active = well fitted curve in the direction sought with a large enough effect; inconclusive = small, poorly fitted or top-dose-only effect, or another doubt; inactive = no such curve, though single readings can be large; an effect the other way counts as inactive or inconclusive. Potency is the fitted concentration of half-maximal effect. These rows are one share of the data; the hit share may differ from the screen's.
entry	smiles	POLI inh	HP1b chromo inh	PGK inhibitor	Pin1 inhibitor
1	COC(=O)c1ccccc1NC(=O)CSc1nc(N)cc(=O)[nH]1	u	u	-18.3%	u
2	Cc1cc(C)c(S(=O)(=O)NCc2ccc3c(c2)OCO3)c(C)c1	164.9%[activator]	20.4%	-6.6%	-2.5%
3	CCC(=O)Nc1cccc(NC(=O)COc2ccc(OC)cc2)c1	6.3%	10.3%	-7.1%	1.1%
4	S=C(NCc1ccc2c(c1)OCO2)NCc1ccc2c(c1)OCO2	69.4%[activator]	37.4%[activator]	-8.6%	-0.8%
5	COc1ccccc1N1CCN(Cc2ccc(Br)o2)CC1	8.7%	u	-7.7%	-5.8%
6	CCn1c(COc2ccc(C)cc2)nnc1SCC(=O)NNC(=O)c1ccc(OC)cc1	15.7%	24.7%	-7.2%	10.1%
7	CC(=O)Nc1ccc(NC(=O)CSc2nc3nc(-c4cccs4)cc(C(F)(F)F)c3c(=O)[nH]2)cc1	-8.6%	41.1%[activator]	-5.6%	1.3%
8	Cc1ccc(C(=O)NC2CCCCCC2)cc1N1CCCC1=O	12.8%	30.2%	1.9%	-3.9%

entry	BLM inh	GLS inh	G9a block
1	-6.8%	0.0%	50.1µM*
2	-9.2%	0.1%	5.4%[59 µM]
3	-0.4%	9.9%	4.8%[59 µM]
4	3.0%	-12.5%	u
5	-0.4%	28.5%	u
6	2.2%	16.6%	14.4%[59 µM]
7	-8.5%	-12.2%	13.3%[12.7 µM]
8	-1.2%	6.3%	x

# Next records:
entry	smiles	POLI inh	HP1b chromo inh	PGK inhibitor	Pin1 inhibitor
9	COc1ccc(OC)c(NC(=O)CSc2ccc3nnc(-c4cccnc4)n3n2)c1	89.1%[activator]	9.1%	-6.3%	-2.3%
10	COC(=O)c1nc(-c2ccccc2)n[nH]1	31.9%[activator]	24.8%	5.5%	-6.1%
11	Nc1nc(Nc2ccccc2)nc(NCc2ccco2)c1[N+](=O)[O-]	1.6%	-4.3%	4.6%	u
12	O=C(Nc1cccc(-c2nc3ccccc3o2)c1)c1cccnc1	20.0%	28.1%	i	37.0%[activator]
13	Cc1ccccc1NC(=O)NCc1ccc2c(c1)OCO2	-0.6%	62.2%[activator]	-5.2%	2.9%
14	O=C(NC(=S)NNC(=O)c1cnccn1)c1ccc(F)cc1	27.7%	32.7%	-4.2%	-0.7%
15	Nc1c(Cl)cc(C2=NCCn3c2c2ccc([N+](=O)[O-])cc2[n+]3[O-])cc1Cl	41.1%	4.7%	-2.1%	19.3%
16	Cc1ccc(-c2nc(CN(C)C3CCOCC3)c(C)o2)s1	17.8%	27.0%	-2.8%	5.3%

entry	BLM inh	GLS inh	G9a block
9	0.6%	-3.0%	-34.0%
10	-0.7%	x	-18.7%[59 µM]
11	u	-10.0%	39.8µM*
12	-5.1%	-6.0%	-6.8%[12.7 µM]
13	-1.8%	2.2%	12.7%
14	-3.1%	20.3%	39.8µM*
15	x	-2.3%	u
16	-5.1%	4.4%	x

# Given as labelled records: entries from further up.
9) COc1ccc(OC)c(NC(=O)CSc2ccc3nnc(-c4cccnc4)n3n2)c1
  POLI inh: 89.1%[activator] | HP1b chromo inh: 9.1% | PGK inhibitor: -6.3% | Pin1 inhibitor: -2.3% | BLM inh: 0.6% | GLS inh: -3.0% | G9a block: -34.0%
10) COC(=O)c1nc(-c2ccccc2)n[nH]1
  POLI inh: 31.9%[activator] | HP1b chromo inh: 24.8% | PGK inhibitor: 5.5% | Pin1 inhibitor: -6.1% | BLM inh: -0.7% | GLS inh: x | G9a block: -18.7%[59 µM]
11) Nc1nc(Nc2ccccc2)nc(NCc2ccco2)c1[N+](=O)[O-]
  POLI inh: 1.6% | HP1b chromo inh: -4.3% | PGK inhibitor: 4.6% | Pin1 inhibitor: u | BLM inh: u | GLS inh: -10.0% | G9a block: 39.8µM*
12) O=C(Nc1cccc(-c2nc3ccccc3o2)c1)c1cccnc1
  POLI inh: 20.0% | HP1b chromo inh: 28.1% | PGK inhibitor: i | Pin1 inhibitor: 37.0%[activator] | BLM inh: -5.1% | GLS inh: -6.0% | G9a block: -6.8%[12.7 µM]

# (list continues)
entry	smiles	POLI inh	HP1b chromo inh	PGK inhibitor	Pin1 inhibitor
17	Cc1ccc(CNCc2ccc3c(c2)OCO3)c(C)c1	6.5%	-34.4%	-2.7%	-1.5%
18	NS(=O)(=O)c1cccc(NC(=O)CSc2nc3nc(-c4cccs4)cc(C(F)(F)F)c3c(=O)[nH]2)c1	-16.3%	33.3%	-8.6%	u
19	COC(=O)COc1cccc(NC(=O)COc2ccccc2)c1	-6.6%	18.8%	-5.2%	0.4%
20	N#Cc1c(NC(=O)CSCC(=O)O)sc2c1CCCC2	14.1%	20.3%	x	-6.1%
21	CN(C)c1ccc(O)c2c1C[C@H]1C[C@H]3[C@H](N(C)C)C(=O)C(C(N)=O)=C(O)[C@@]3(O)C(=O)C1=C2O	x	x	x	x
22	O=C(CSc1nnc(-c2ccco2)n1-c1ccccc1)NCc1ccco1	19.5%	26.7%	4.3%	1.8%
23	CC(=O)NC1C(=O)N=C(SCC(=O)Nc2sc3c(c2C#N)CCCCCC3)NC1=O (stereo not drawn)	-4.1%	58.1%[activator]	-2.0%	1.3%
24	COc1ccc(-n2nc3c(=O)[nH][nH]c3cc2=O)cc1	u	8.6%	-14.5%	u

entry	BLM inh	GLS inh	G9a block
17	-5.8%	1.1%	u
18	-4.2%	u	-3.7%[59 µM]
19	0.0%	4.8%	16.5%[12.7 µM]
20	-0.6%	17.3%	23.0%[59 µM]
21	x	u	x
22	-1.1%	-3.6%	0.0%
23	-9.4%	17.3%	-42.7%
24	-29.4%	0.0%	u

# Next section:
entry	smiles	POLI inh	HP1b chromo inh	PGK inhibitor	Pin1 inhibitor
25	COc1ccc2oc(/C=C/N(C)C)c(C(=O)c3ccc(Cl)cc3)c2c1	-2.2%	-24.1%	-5.5%	-0.1%
26	Cc1cccc(C)c1Nc1nnc(SCC(=O)NC(=O)c2cccn2C)s1	25.2%	12.5%	2.1%	1.6%
27	Cc1ccc(OCc2nnc(SCC(=O)NCc3ccco3)n2C)cc1	0.7%	u	0.6%	-7.3%
28	O=C(CCCc1ccccc1)Nc1ccccc1[N+](=O)[O-]	80.6%[activator]	u	-4.9%	-1.4%
29	CC(C)=CCCC(C)CN1CCC(O)CC1 (stereo not drawn)	-20.0%[58.9 µM]	u	-9.7%	-9.0%
30	O=C(Nc1ccc(F)cc1F)c1noc2c1CCC2	17.8µM*	u	u	u
31	CCCCN=CC1=C(O)C(C(=O)OC)C(C)(C)CC1=O (stereo not drawn)	1.4%	20.5%	-1.4%	0.4%
32	CCC(C)NCCCOc1ccc(Cl)cc1C(C)(C)C (stereo not drawn)	-4.6%	u	-9.9%	-14.6%
33	CCn1c(CNc2nc(-c3ccccc3)cs2)nnc1SCC(=O)NCc1ccco1	u	u	i	6.8%
34	Cc1cc(NC(=O)CSc2nnc(-c3ccccc3)o2)no1	11.6%	45.2%[activator]	-2.1%	0.5%

entry	BLM inh	GLS inh	G9a block
25	-2.1%	-0.5%	50.1µM*
26	-13.6%	12.9%	20µM*
27	-0.3%	1.0%	12.7%[59 µM]
28	2.4%	u	u
29	-3.3%	-4.1%	12.6µM*
30	-17.4%	-20.6%	u
31	-1.7%	11.3%	7.0%[59 µM]
32	1.2%	-0.4%	12.6µM*
33	-10.2%	2.3%	50.1µM*
34	4.4%	-3.0%	15.2%

# 2 compounds from above with just Pin1 inhibitor, BLM inh and HP1b chromo inh.
cpd	compound	Pin1 inhibitor	BLM inh	HP1b chromo inh
26	Cc1cccc(C)c1Nc1nnc(SCC(=O)NC(=O)c2cccn2C)s1	1.6%	-13.6%	12.5%
25	COc1ccc2oc(/C=C/N(C)C)c(C(=O)c3ccc(Cl)cc3)c2c1	-0.1%	-2.1%	-24.1%
